FGF22 binding = shifts melting point of recombinant human FGF22 | Q9HCT0 | recombinant FGF22 thermal shift, SYPRO orange fluorescence; percent of sucrose octasulfate shift, DMSO zero | calls only at 9.99 µM | 340,000 tested, 1.5% active;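 active = melting point raised past a set limit in the mean and every replicate; three in four hits are not shown here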
Target sequence (Q9HCT0 whole entry, looked up): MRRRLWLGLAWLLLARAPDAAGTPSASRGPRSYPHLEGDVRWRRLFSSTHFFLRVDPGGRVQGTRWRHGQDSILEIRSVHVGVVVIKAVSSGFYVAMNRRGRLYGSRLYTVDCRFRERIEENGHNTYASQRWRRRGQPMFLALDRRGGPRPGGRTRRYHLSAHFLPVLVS
rRNA inh HTS = inhibits bacterial ribosomal RNA function over humanized ribosomes | E. coli WT GFP vs humanized-ribosome RFP mutants, fluorescence, 24 h; active compounds read low; DMSO median 0, no signal -100 | GFP signal change (wild-type ribosome), % (no concentration beside the values) | 350,000 tested, 1.6% active | AID 720706;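 active = significant combined selectivity score with lowered wild-type GFP, culture density cut under 30%, mutant RFP and density less affected; inactive = any of these conditions unmet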; note: one replicate is shown; some compounds called inactive have numbers as strong as hits
rRNA inh HTS OD600 = also measured in rRNA inh HTS; calls as there; OD600 change, %; measured here: OD600 growth;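 optical density of the mix in the first replicate; 0 = DMSO median and -100 = no signal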
rRNA inh HTS RFP = recorded beside rRNA inh HTS, whose call it bears; RFP signal change, %; measured here: RFP humanized mutant strains;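 first replicate; 0 = DMSO median and -100 = no signal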
Active calls of the source: *; i = inactive; ! = not confirmed by another sample. An excerpt. The share of hits here may be higher or lower than overall.

FGF22 binding	rRNA inh HTS	rRNA inh HTS OD600	rRNA inh HTS RFP	smiles
i	2	8	0.4	COCCNC(=O)C[C@@H]1CC[C@@H]2[C@@H](COc3ccc(NS(=O)(=O)c4ccc(Cl)cc4)cc3C(=O)N2C)O1
i	3	-3	-3.1	C/C=C/c1ccc2c(c1)O[C@H](CN(C)C(=O)Nc1cc(F)ccc1F)[C@@H](C)CN([C@@H](C)CO)S2(=O)=O
i	-1	-1	0.8	Cc1ccc(S(=O)(=O)N(C)C[C@@H]2OCCCC[C@H](C)Oc3ccc(NS(C)(=O)=O)cc3C(=O)N([C@H](C)CO)C[C@H]2C)cc1
i	0	1	1.0	C[C@@H](NC(=O)C[C@@H]1C=C[C@@H](NC(=O)Cc2ccccn2)[C@@H](CO)O1)c1ccccc1
i	0	6	1.2	Cc1ccc(S(=O)(=O)Nc2ccc3c(c2)C(=O)N([C@H](C)CO)C[C@@H](C)[C@@H](CN(C)Cc2ccc4c(c2)OCO4)O3)cc1
i	3	-26	-0.2	Cc1ccccc1-c1ccc([C@@H]2[C@@H](CO)N3CCCCN(S(C)(=O)=O)C[C@@H]23)cc1
i	5	8	-2.3	CCCC(=O)Nc1ccc2c(c1)C(=O)N(C)C[C@@H](OC)[C@H](C)CN(C(C)=O)[C@H](C)CO2
i	-2	5	15	CC(C)C[C@H]1COc2c(Cl)cccc2S(=O)(=O)N1Cc1cccc(Cl)c1
i	1	0	-0.8	C[C@@H]1CN([C@@H](C)CO)C(=O)c2cc(-c3ccccc3)cnc2O[C@H]1CN(C)C(=O)C1CCOCC1
i	-34*!	-20*!	8.5*!	COc1ccccc1S(=O)(=O)N(C)C[C@H]1Oc2cc(Br)ccc2S(=O)(=O)N([C@H](C)CO)C[C@H]1C
i	2	5	-1.5	C[C@H]1CN([C@@H](C)CO)C(=O)c2cccc(NC(=O)Nc3ccc(F)cc3)c2O[C@H]1CN(C)CC1CC1
i	5	-9	1.4	Cc1ccc(S(=O)(=O)N(C)C[C@@H]2Oc3ncc(C#CCC(C)C)cc3C(=O)N([C@H](C)CO)C[C@@H]2C)cc1
i	0	-9	0.8	C[C@H](NC(=O)C[C@@H]1CC[C@@H]2[C@H](COC[C@@H](O)CN2Cc2cc(F)ccc2F)O1)c1ccccc1
i	1	8	-1.3	C[C@@H]1CCCCO[C@H](CN(C)S(=O)(=O)c2cccs2)[C@H](C)CN([C@@H](C)CO)C(=O)c2cc(NC(=O)Nc3ccc(C(F)(F)F)cc3)ccc2O1
i	-10	-15	4.5	O=C(C[C@H]1CC[C@@H](NS(=O)(=O)c2ccc(F)cc2)[C@H](CO)O1)NCc1ccc(Cl)c(Cl)c1

Exported with two lines to a compound: 6 of the compounds above
Values run as follows: FGF22 binding, rRNA inh HTS, rRNA inh HTS OD600, rRNA inh HTS RFP
C[C@@H](NC(=O)C[C@@H]1C=C[C@@H](NC(=O)Cc2ccccn2)[C@@H](CO)O1)c1ccccc1
 : i, 0, 1, 1.0
Cc1ccc(S(=O)(=O)Nc2ccc3c(c2)C(=O)N([C@H](C)CO)C[C@@H](C)[C@@H](CN(C)Cc2ccc4c(c2)OCO4)O3)cc1
 : i, 0, 6, 1.2
Cc1ccccc1-c1ccc([C@@H]2[C@@H](CO)N3CCCCN(S(C)(=O)=O)C[C@@H]23)cc1
 : i, 3, -26, -0.2
CCCC(=O)Nc1ccc2c(c1)C(=O)N(C)C[C@@H](OC)[C@H](C)CN(C(C)=O)[C@H](C)CO2
 : i, 5, 8, -2.3
CC(C)C[C@H]1COc2c(Cl)cccc2S(=O)(=O)N1Cc1cccc(Cl)c1
 : i, -2, 5, 15
C[C@@H]1CN([C@@H](C)CO)C(=O)c2cc(-c3ccccc3)cnc2O[C@H]1CN(C)C(=O)C1CCOCC1
 : i, 1, 0, -0.8

The listing picks up, starting three compounds before the break.
FGF22 binding	rRNA inh HTS	rRNA inh HTS OD600	rRNA inh HTS RFP	smiles
i	0	-9	0.8	C[C@H](NC(=O)C[C@@H]1CC[C@@H]2[C@H](COC[C@@H](O)CN2Cc2cc(F)ccc2F)O1)c1ccccc1
i	1	8	-1.3	C[C@@H]1CCCCO[C@H](CN(C)S(=O)(=O)c2cccs2)[C@H](C)CN([C@@H](C)CO)C(=O)c2cc(NC(=O)Nc3ccc(C(F)(F)F)cc3)ccc2O1
i	-10	-15	4.5	O=C(C[C@H]1CC[C@@H](NS(=O)(=O)c2ccc(F)cc2)[C@H](CO)O1)NCc1ccc(Cl)c(Cl)c1
i	2	4	1.0	C[C@H]1CN([C@@H](C)CO)C(=O)Cc2cc(NC(=O)Nc3ccc4c(c3)OCO4)ccc2O[C@@H]1CN(C)C
i	-6	4	-1.2	C[C@@H]1CN([C@H](C)CO)C(=O)c2cccc(NC(=O)C3CC3)c2O[C@@H]1CN(C)C(=O)Nc1ccc(C(F)(F)F)cc1
i	0	7	0.7	O=C(NCc1ccccc1Cl)[C@@H]1[C@@H](CO)[C@@H]2Cn3c(cccc3=O)[C@@H]2N1C(=O)C1CCCC1
i	5	6	0.3	O=C(O)C[C@H]1C[C@@H]2c3cc(NS(=O)(=O)c4ccccc4)ccc3O[C@@H]2[C@@H](CO)O1
i	2	-6	26	CNC[C@@H]1Oc2cc(-c3ccc(C)cc3)ccc2S(=O)(=O)N([C@@H](C)CO)C[C@H]1C
i	3	-1	-3.9	CC(C)NC(=O)Nc1ccc2c(c1)C(=O)N([C@H](C)CO)C[C@H](C)[C@H](CN(C)S(=O)(=O)c1ccc(Cl)cc1)O2
i	1	4	-1.6	CN(C)CC(=O)Nc1ccc2c(c1)[C@@H]1C[C@H](CC(=O)NCc3ccncc3)O[C@H](CO)[C@@H]1O2
i	4	15	-6.8	C/C=C/c1cnc2c(c1)C(=O)N([C@H](C)CO)C[C@H](C)[C@H](CN(C)C(=O)c1cnccn1)O2
i	3	-1	7.6	C[C@H](CO)N1C[C@H](C)[C@H](CN(C)Cc2ccc3c(c2)OCO3)Oc2ccc(NC(=O)Nc3cccc4ccccc34)cc2C1=O
i	3	5	1.3	C[C@@H]1CCCCO[C@@H](CN(C)C(=O)Cc2ccccc2)[C@H](C)CN([C@H](C)CO)C(=O)c2cc(NC(=O)CCC(F)(F)F)ccc2O1
i	-3	12	4.4	COc1ccc(-c2ccc([C@H]3[C@H](CO)N[C@@H]3C#N)cc2)cc1
i	1	-1	1.1	C[C@@H]1CN([C@H](C)CO)C(=O)c2ccccc2-c2ccccc2CO[C@H]1CN(C)C(=O)[C@@H]1CCCN1C
i	5	3	0.6	CCC(=O)NC[C@H]1[C@H](c2ccccc2)[C@@H](CO)N1C(=O)C1CCC1
i	1	-5	1.7	CO[C@H]1CN(C)C(=O)c2cc(NC(=O)CC(F)(F)F)ccc2OC[C@H](C)N(S(=O)(=O)c2cn(C)cn2)C[C@H]1C
i	4	9	-2.9	Cc1noc(C)c1S(=O)(=O)Nc1ccc2c(c1)C(=O)N([C@H](C)CO)C[C@H](C)[C@H](CN(C)Cc1ccc(C(F)(F)F)cc1)OCCCC[C@@H](C)O2

The list goes on:
FGF22 binding	rRNA inh HTS	rRNA inh HTS OD600	rRNA inh HTS RFP	smiles
i	-4	-4	-1.5	CC(=O)N(C)C[C@@H]1Oc2cc(-c3ccccc3)ccc2S(=O)(=O)N([C@H](C)CO)C[C@@H]1C
i	-2	8	-1.1	COc1ccc(S(=O)(=O)N(C)C[C@H]2OCCCC[C@H](C)Oc3ccc(NS(=O)(=O)c4cn(C)cn4)cc3C(=O)N([C@@H](C)CO)C[C@H]2C)cc1
i	4	0	0.5	CC(=O)N1CCCCN2[C@H](C1)[C@H](c1ccc(-c3ccc(C)cc3)cc1)[C@@H]2CO
i	1	8	1.9	C/C=C/c1cnc2c(c1)C(=O)N([C@@H](C)CO)C[C@@H](C)[C@H](CN(C)S(=O)(=O)c1cccs1)O2
i	1	8	0.3	Cc1ccccc1S(=O)(=O)NCC[C@H]1CC[C@@H](NC(=O)C2CC2)[C@@H](CO)O1
i	-14	-39	14	CC(C)CC#Cc1ccc2c(c1)O[C@@H](CN(C)C(=O)C1CCC1)[C@H](C)CN([C@H](C)CO)S2(=O)=O
i	-5	1	-1.4	CCCC(=O)N1CC2(CCN(S(=O)(=O)CC)CC2)c2c(n(C)c3cc(OC)ccc23)[C@@H]1CO
i	3	12	-0.5	CN1C(=O)c2cc(NC(=O)Cc3cccs3)ccc2OC[C@@H]2O[C@@H](CC(=O)NCC3CC3)CC[C@@H]21
i	0	0	-2.7	CCC(=O)N1C[C@@H](C)[C@@H](OC)CN(C)C(=O)c2cc(NS(C)(=O)=O)ccc2OC[C@@H]1C
i	-4	3	-2.3	Cc1cccc(S(=O)(=O)N2CC[C@@H]3[C@H](CO)Nc4ccc(C#Cc5ccccc5F)cc4[C@@H]32)c1
i	0	-2	-0.9	C[C@@H]1CCCCO[C@H](CN(C)C(=O)C2CCCCC2)[C@@H](C)CN([C@H](C)CO)C(=O)c2cc(NC(=O)Nc3ccccc3)ccc2O1
i	2	1	-1.1	CO[C@H]1CN(C)C(=O)c2ccc(NS(=O)(=O)CC(F)(F)F)cc2OC[C@H](C)NC[C@H]1C
i	4	4	-2.0	CC=Cc1ccc2n(c1=O)C[C@@H]1[C@@H](CO)[C@H](C(=O)N[C@H](C)c3ccccc3)N(C)[C@H]21 (mixture of isomers)
i	-1	4	-1.1	Cc1noc(C)c1NC(=O)N(C)C[C@H]1OCCCC[C@H](C)Oc2ccc(N(C)C)cc2C(=O)N([C@H](C)CO)C[C@@H]1C
i	0	-5	3.2	CS(=O)(=O)N1CC(=O)N2[C@H](C1)[C@@H](c1ccc(C#CCc3ccccc3)cc1)[C@@H]2CO

In a second layout: entries from further up.
compound: C[C@@H]1CN([C@H](C)CO)C(=O)c2cccc(NC(=O)C3CC3)c2O[C@@H]1CN(C)C(=O)Nc1ccc(C(F)(F)F)cc1
  FGF22 binding: i	rRNA inh HTS: -6	rRNA inh HTS OD600: 4	rRNA inh HTS RFP: -1.2
compound: CCCC(=O)Nc1ccc2c(c1)C(=O)N(C)C[C@@H](OC)[C@H](C)CN(C(C)=O)[C@H](C)CO2
  FGF22 binding: i	rRNA inh HTS: 5	rRNA inh HTS OD600: 8	rRNA inh HTS RFP: -2.3

(further entries)
FGF22 binding	rRNA inh HTS	rRNA inh HTS OD600	rRNA inh HTS RFP	smiles
i	-3	-18	3.4	C[C@H]1CN([C@@H](C)CO)S(=O)(=O)c2ccc(C3=CCCC3)cc2O[C@H]1CN(C)Cc1ccccn1
i	2	6	-1.0	CCC(=O)N1[C@@H]2Cn3c(cccc3=O)[C@H]1[C@@H](C(=O)N1CCCCC1)[C@@H]2CO
i	-4	-2	-0.4	O=C(C[C@H]1CC[C@H](NC(=O)Cc2cccnc2)[C@H](CO)O1)Nc1ccc(-c2ccccc2)cc1
i	-3	-5	-0.8	O=C(NCC[C@H]1CC[C@H](NC(=O)Nc2cc(F)ccc2F)[C@@H](CO)O1)Nc1ccc(F)cc1
i	2	-1	1.8	Cc1noc(C)c1NC(=O)N(C)C[C@H]1Oc2ccc(NS(=O)(=O)c3cn(C)cn3)cc2C(=O)N([C@@H](C)CO)C[C@@H]1C
i	1	-4	0.0	Cc1ccc(S(=O)(=O)N(C)C[C@@H]2Oc3c(NS(=O)(=O)c4ccc(F)cc4)cccc3C(=O)N([C@H](C)CO)C[C@H]2C)cc1
i	0	-5	-0.4	COc1ccc(NC(=O)N(C)C[C@@H]2Oc3ncc(C4=CCCC4)cc3C(=O)N([C@H](C)CO)C[C@H]2C)cc1
i	3	3	-0.6	COCC(=O)Nc1ccc2c(c1)C(=O)N(C)[C@@H]1CC[C@H](CC(=O)NCc3ccccc3F)O[C@@H]1CO2
i	-37	-50	-18	Cc1noc(C)c1NC(=O)Nc1ccc2c(c1)C(=O)N([C@@H](C)CO)C[C@H](C)[C@@H](CN(C)S(=O)(=O)c1cccs1)OCCCC[C@@H](C)O2
i	2	1	-2.4	COCC(=O)Nc1ccc2c(c1)C(=O)N(C)C[C@H](OC)[C@@H](C)CN(C(=O)c1ccccc1)[C@H](C)CO2
i	5	8	1.1	CNC[C@@H]1OCCCC[C@H](C)Oc2ccc(NS(=O)(=O)c3cccs3)cc2C(=O)N([C@H](C)CO)C[C@@H]1C
i	-1	0	0.8	Cc1noc(C)c1S(=O)(=O)Nc1ccc2c(c1)C(=O)N([C@@H](C)CO)C[C@@H](C)[C@@H](CN(C)C(=O)C1CCCCC1)OCCCC[C@@H](C)O2
i	4	10	1.3	COc1ccc(S(=O)(=O)Nc2ccc3c(c2)C(=O)N([C@H](C)CO)C[C@H](C)[C@@H](CN(C)C(=O)Cc2ccccc2)OCCCC[C@@H](C)O3)cc1
i	1	7	-0.9	Cc1noc(C)c1S(=O)(=O)Nc1ccc2c(c1)C(=O)N([C@@H](C)CO)C[C@@H](C)[C@@H](CN(C)C(=O)c1ccncc1)OCCCC[C@@H](C)O2
i	3	6	-1.4	C[C@@H]1CCCCO[C@H](CN(C)Cc2ccc(C(=O)O)cc2)[C@H](C)CN([C@H](C)CO)C(=O)c2cc(NC(=O)C3CCCCC3)ccc2O1
i	0	1	4.9	CC(C)NC(=O)Nc1ccc2c(c1)C(=O)N([C@@H](C)CO)C[C@H](C)[C@H](CN(C)S(=O)(=O)c1ccc(F)cc1)OCCCC[C@H](C)O2
i	-2	-7	-1.4	CC(C)CC#Cc1ccc2c(c1)O[C@H](CN(C)Cc1ccccc1F)[C@@H](C)CN([C@H](C)CO)S2(=O)=O
